Assay outcomes (PubChem BioAssay)
PINK1 expr mod: modulators of PINK1 expression; PINK1 immunofluorescence, high-content cytometry, 24 h; Potency, µM (titrated, usually from 76.6 µM), for the others: at the highest dose activation (PINK1 increase), actives largely listed as activators; hit rate 0.2% among 410,000; AID 624263; active = well fitted activation curve with a large enough effect; inconclusive = small, poorly fitted or top-dose-only effect; inactive = flat fitted curve, though single readings scatter; cell line not stated here;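 also: potency is read from the fitted curve at half-maximal effect; % of control where 0% means no effect; nearly all actives have a fitted effect of over 65% in size; a mitochondrial uncoupler was the plate control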
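Stable cell line, 250 cells/well, 12 h attachment; compounds pinned at 5 concentrations, 24 h; CCCP control. Fixed with nuclear dye, primary antibodies 12 h at 10 degrees C, secondary plus cell stain; laser-scanning cytometer read.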
Sfp PPTase inh: blocks B. subtilis Sfp PPTase activity; Q9F4F7; Biochemical Sfp PPTase activity, qHTS; Potency, µM, without a hit: max response, negative = inhibition, usual class: inhibitors; hit rate 3.5% among 310,000; active = well fitted inhibition curve with a large enough effect; inconclusive = small, poorly fitted or top-dose-only effect, or another doubt; inactive = no such curve, though single readings can be large or run the other way;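 also: the enzyme is Sfp with the accession as filed and its product quenches rhodamine fluorescence; potency is read from the fitted curve at half-maximal effect; 0% = enzyme reaction without inhibitor and -100% = no enzyme wells; top concentration of the series not given in the record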
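Fluorescence-quenching assay: 15 nM Sfp-PPTase preincubated 15 min at room temperature with compound, then 5 uM rhodamine-CoA and 12.5 uM BHQ-2-labelled YbbR peptide added. Fluorescence (ex 525/em 598 nm) read at start and after 30 min; difference gives rate.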
D2 PAM: human D2 receptor positive allosteric modulation; P14416; DiscoveRx D2 beta-arrestin cells, luminescence, 90 min; 100% = 57 uM dopamine signal; potentiation, % (concentration not given with the values); hit rate 0.23% among 360,000; AID 624464; active = potentiation of 50% or more; inconclusive = 30% to 50%; inactive = 30% or less;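 also: compound concentration not given in the record; tested on top of an EC20 dose of dopamine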
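PathHunter D2 cells, attached overnight at 37 deg C, received compound in DMSO plus dopamine at EC20 (50 nM final) for 90 min at 37 deg C. Beta-arrestin recruitment was read as luminescence after 1 h with detection reagent at ambient temperature.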
TRPV1 potentiator: enhances activation of the human vanilloid receptor TRPV1; potentiation, % at 8.33 µM; AID 540277; TRPV1-expressing cells, Fluo-8 calcium influx, capsaicin EC20 potentiation; host cell line not named in the record; control for the full effect not named in the record; hit rate 0.02% among 320,000; Q8NER1; active means potentiation above 80%; inconclusive means 30% to 80%; inactive means below 30%; also: 0% is about no effect
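TRPV1-expressing cells were cultured overnight at 35.5C and loaded with Fluo-8 calcium dye for 40 to 90 min at room temperature. After a 10 s baseline, compound was added and calcium influx was read kinetically for 3 min (ex 480/em 520 nm).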
CtBP-E1A blk: CtBP/E1A binding inhibition; hit rate 0.49% among 340,000; activity change, % (test concentration not listed); AlphaScreen GST-E1A/His-CtBP binding, 1536-well; hits give low values; control for the full effect not named in the record; in the data active means activity change below about -65%; inconclusive means about -30% to -65%; inactive means above about -30%; also: % is scaled to controls: 0 for no effect and ±100 for the full control effect; compound concentration not given in the record
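In 5 uL wells, 23 nL compound meets equimolar GST-E1A and His-CtBP (5X stock 125 nM each) for 2 h, 37 °C. Beads (5X, 50 ug/mL) then 1 h, 37 °C, dark.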
D2 ag: agonists of human D2 dopamine receptor (beta-arrestin); P14416; DiscoveRx PathHunter D2 beta-arrestin, luminescence, 90 min; 100% = 57 uM dopamine signal; activation, % (test concentration not listed); hit rate 0.084% among 360,000; AID 624465; in the data active = activation above about 40%; inconclusive = about 15% to 40%; inactive = below about 15%; also: compound concentration not given in the record; the text of the record calls up to 30% inactive
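Agonist mode: compounds alone added to overnight-plated D2 PathHunter cells for 90 min at 37 C, with 57 uM final dopamine (EC100) defining full response. Beta-arrestin recruitment detected by chemiluminescent reagent, read after 1 h at ambient temperature.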
Six1-Eya2 inh: blocks human Six1 binding to Eya2; hit rate 0.56% among 360,000; AlphaScreen GST-Six1/His-Eya2 binding, biochemical; hits give low values; control for the full effect not named in the record; activity change, % (no concentration beside the values); Q15475+O00167; in the data active = activity change below about -65%; inconclusive = about -30% to -65%; inactive = above about -30%; also: % is scaled to controls: 0 for no effect and ±100 for the full control effect; compound concentration not given in the record
Target sequence (O00167 whole entry, looked up): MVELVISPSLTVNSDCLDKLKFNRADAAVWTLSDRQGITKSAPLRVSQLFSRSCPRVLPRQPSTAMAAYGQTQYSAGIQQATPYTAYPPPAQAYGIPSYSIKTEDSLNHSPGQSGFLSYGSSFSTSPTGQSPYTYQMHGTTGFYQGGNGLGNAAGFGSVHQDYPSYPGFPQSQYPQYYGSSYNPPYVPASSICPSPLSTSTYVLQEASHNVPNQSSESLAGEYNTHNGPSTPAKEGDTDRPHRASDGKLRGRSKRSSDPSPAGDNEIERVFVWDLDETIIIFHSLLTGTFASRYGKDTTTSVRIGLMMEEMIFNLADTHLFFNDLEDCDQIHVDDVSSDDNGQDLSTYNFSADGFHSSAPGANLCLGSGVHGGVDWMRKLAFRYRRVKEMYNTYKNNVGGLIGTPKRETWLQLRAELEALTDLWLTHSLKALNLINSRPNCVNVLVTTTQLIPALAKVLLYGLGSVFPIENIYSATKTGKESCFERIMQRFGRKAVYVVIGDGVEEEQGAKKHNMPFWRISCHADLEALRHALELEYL
Target sequence (Q15475 whole entry, looked up): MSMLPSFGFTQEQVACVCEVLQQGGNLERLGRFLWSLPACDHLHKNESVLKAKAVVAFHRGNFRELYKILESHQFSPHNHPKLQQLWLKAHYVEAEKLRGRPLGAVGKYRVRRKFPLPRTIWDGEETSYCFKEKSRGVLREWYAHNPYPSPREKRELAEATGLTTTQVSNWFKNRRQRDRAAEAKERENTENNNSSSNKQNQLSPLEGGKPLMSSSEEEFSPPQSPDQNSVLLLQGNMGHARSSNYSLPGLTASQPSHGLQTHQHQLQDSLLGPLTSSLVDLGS
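AlphaScreen luminescence read after one hour at 37 °C in darkness. Pin-transferred compounds met GST-Six1 and His-Eya2 protein (5X stock 250 nM/500 nM) plus glutathione donor and Ni-chelate acceptor beads (5X, 50 ug/mL).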
* hit, by the source's call; ? = inconclusive; . = not tested or not shown; & = joins results of further samples; [ ] = dose if it differs, or a comment. Hits appear at their usual frequency (roughly 3.7% active in at least one column).

compound	PINK1 expr mod	Sfp PPTase inh	D2 PAM	TRPV1 potentiator	CtBP-E1A blk	D2 ag	Six1-Eya2 inh
COCc1nnc(NS(=O)(=O)c2ccc([N+](=O)[O-])cc2)s1	-0.8%	-19.8%	14.3	8.0	1.4	5.0	1.3
Cc1ccc(OCC(=O)Nc2c(C)ccc3nsnc23)cc1	1.8%	6.5%	-5.6	?	.	-0.8	12.2
COc1ccc(C(=O)Nc2ccccc2C(=O)Nc2cccc(C)n2)cc1	9.1%	9.1%	0.2	4.9	0.0	0.6	2.6
CCN(C1CCCCC1)S(=O)(=O)c1ccc(S(=O)(=O)N(CC(=O)Nc2ccccc2)C2CC2)cc1	29.2%[38.3 µM]	7.6%	-8.3	2.8	15.5	-1.2	-0.6
Cc1ccc(Cn2c3ccccc3c3cn[nH]c(=O)c32)cc1	7.1%	3.1%	0.6	20.3	-0.2	1.1	-7.2
CCOc1ccc2[nH]c3c(c2c1)CNCC3	-1.2%	8.4%	-4.9	6.8	-13.2	-1.6	-14.2
c1ccc(-c2ccccc2OCCN2CCOCC2)cc1	-1.5%	-32.3%	-10.5	-5.4	3.0	-5.0	8.9
Oc1[nH]c2ccc(Br)cc2c1N=NC(=S)Nc1ccc(F)cc1	6.7%	?	-4.9	4.3	?	-0.8	?
COC(=O)CSc1ncc(C#N)c(N)n1	2.2%	5.2%	-4.4	-7.3	-0.8	-3.2	-10.6
CC(=O)Oc1ccc(-c2cccc(C(=O)NCCO)c2)cc1	-0.3%	13.6%	-7.2	-10.2	4.1	-2.8	-1.6
CCn1nc(C(=O)Nc2nc3ccccc3[nH]2)c2ccccc2c1=O	1.1%	4.2%	-10.7	-8.2	?	0.6	-15.4
CN(Cc1ccccc1)C(=O)COC(=O)c1ccc2ccccc2n1	0.9%	-4.4%	-10.9	-2.4	4.3	-2.8	-0.7
CN1CCN(S(=O)(=O)c2cccc(C(=O)Nc3cccc([N+](=O)[O-])c3)c2)CC1	2.8%	.	-5.4	.	-5.5	-6.3	-18.9
COc1cc(C(CC(=O)Nc2cc(C)ccn2)N2Cc3ccccc3C2=O)cc(OC)c1OC (centres undefined)	6.2%&-4.2%	16.6%	-5.1	-2.2	5.3	-1.3	-0.9
COc1ccc(NC(=S)NNC(=O)CNc2ccc(Cl)cc2)cc1	4.5%	79.4µM*	-6.3	1.9	-5.9	-2.8	-4.2
COC(=O)C1=C(C)N(Cc2ccccc2)C(=NCc2cc(OC)c(OC)c(OC)c2)N[C@H]1CCc1ccccc1	1.0%	0.3%	-16.8	1.0	-0.5	-1.1	-1.5
O=C(O)c1cc(C(=O)O)c(-c2ccccc2)c(C(=O)O)c1	0.7%	4.8%	-12.9	1.1	1.9	0.2	3.0
O=C(c1ccco1)n1nc(-c2ccco2)nc1SCc1ccccc1	-2.1%[38.3 µM]	5.5%	0.9	11.4	8.7	-3.2	2.4
CCc1nc(N2CCC(C)CC2)c2oc3ccccc3c2n1	?	?	-17.7	6.0	11.6	1.8	14.4
CCN1CCN(C(CNS(=O)(=O)c2ccc(Cl)cc2)c2ccccc2)CC1 (centres undefined)	-0.7%	14.1%	-25.5	-6.4	-1.6	0.5	1.0

Carrying on.
compound	PINK1 expr mod	Sfp PPTase inh	D2 PAM	TRPV1 potentiator	CtBP-E1A blk	D2 ag	Six1-Eya2 inh
CC(CP(=O)(O)O)NC(=O)Cc1ccccc1 (centres undefined)	3.3%	9.9%	-6.9	-7.2	6.7	-5.0	5.4
CCC1(c2ccccc2)NC(=O)N(CC(=O)Nc2ccc(S(=O)(=O)NC3=NCCCCC3)cc2)C1=O (centres undefined)	-2.0%	.	-11.3	2.4	0.1	-4.7	6.8
O=C(CNC(=S)N(CCCN1CCOCC1)Cc1cccs1)NCc1ccccc1	0.5%	5.7%	-9.5	6.8	.	-3.5	2.3
CCc1nnc(NC(=O)c2nc(Cl)ccc2Cl)s1	0.4%	4.9%	-10.2	0.3	-11.2	-3.2	-19.3
CCOc1ccc(C2C(C(=O)Nc3cc(C)on3)c3ccccc3C(=O)N2CCN2CCOCC2)cc1 (centres undefined)	0.1%	18.4%	-1.6	-11.4	-4.3	-1.1	0.0
COc1cc(OC)cc(-c2c(-c3cccs3)c3cc(-c4ccc(OC)cc4F)ccc3n2C)c1	0.8%	.	-8.3	5.0	-9.6	1.1	-5.7
CCC(c1nnnn1C(C)C)N1CCN(C2CCCC2)CC1 (centres undefined)	0.9%	0.0%	-8.5	4.9	-2.3	-2.7	-0.8
COc1ccc(C(=O)N2CCCc3ccccc32)cc1	5.5%[38.3 µM]	14.9%	-4.6	-1.4	0.0	-2.9	3.9
O=C(O)C1(Nc2ccccc2)CCCC1	0.1%	.	-2.0	.	2.6	-1.9	6.3
COc1ccc2c(c1)c(C(=O)O)c(C)n2-c1ccccc1	1.0%	14.6%	-0.9	4.5	4.1	-0.9	1.7
Cc1cccc(Nc2nc(N)nc(CSC(=S)N3CCOCC3)n2)c1	-0.5%	-12.5%	5.5	-18.2	33.0	0.1	26.2
O=C(CN1C(=O)NC2(CCCC2)C1=O)N1CCN(Cc2ccccc2)CC1	0.4%	.	-7.0	12.3	7.0	0.2	3.1
Cc1ccc(-n2nc3c(c2NC(=O)c2ccco2)CS(=O)(=O)C3)c(C)c1	-1.1%	16.2%	-8.8	-3.9	3.6	0.8	8.1
COC(=O)CNC(=O)c1ccc(NS(=O)(=O)c2cc([N+](=O)[O-])ccc2Cl)cc1	0.2%	-23.5%	-10.2	-4.8	-2.9	-0.9	3.1
Clc1cccc(-c2cccc3nccn23)c1Cl	-0.7%	.	-10.9	.	4.9	7.8	12.1
Clc1ccc(CSc2ncn[nH]2)cc1	0.0%	4.0%	10.6	-11.8	1.7	-0.4	6.0
COc1cc(/C=C/[N+](=O)[O-])ccc1OCc1cccc(C(=O)O)c1	1.1%	14.1µM*	1.9	3.0	2.2	-2.6	-76.4*
Cc1nn(C)c(C)c1Nc1ccc(N2C(=O)C3C4C=CC(C4)C3C2=O)cc1[N+](=O)[O-] (centres undefined)	0.6%	-15.5%	4.0	-7.0	0.0	-1.8	15.9
CC(=O)c1sc(NC(=O)C2CCN(c3ncnc4sc(C)c(C)c34)CC2)nc1-c1ccccc1	3.8%	.	-11.7	-0.2	0.1	-1.6	-3.9
O=C(O)CSc1ccn(Cc2ccccc2)c1	0.4%	.	-1.0	.	5.2	-3.0	-9.9

The list continues:
compound	PINK1 expr mod	Sfp PPTase inh	D2 PAM	TRPV1 potentiator	CtBP-E1A blk	D2 ag	Six1-Eya2 inh
CCOC(=O)Cc1csc(NC(=O)Nc2cccc(Cl)c2)n1	7.1%	8.2%	3.5	0.6	0.8	3.1	-4.8
CC1CCN(S(=O)(=O)Cc2ccccc2Cl)CC1	-0.9%	-6.7%	-7.8	28.4	6.2	-4.4	4.9
CC1C(=O)N2CCCc3cc(NC(=O)C(=O)NCCCc4ccccc4)cc1c32 (centres undefined)	0.8%	.	-11.2	-11.5	6.5	-1.3	-6.9
FC(F)C(F)(F)Oc1cccc(Nc2nccn3c(-c4cccc5ccccc45)cnc23)c1	5.8%	.	1.1	.	-14.6	-1.8	-18.2
COC(=O)c1ccc(N=NNc2cccc(Br)c2)cc1	14.2%	-5.3%	-4.5	8.0	-0.9	-1.9	-6.7
CC(=O)Nc1ccc(NC(=O)C(C)OC(=O)c2ccc(S(=O)(=O)N3CCCCCC3)cc2)cc1 (centres undefined)	9.1%	.	-2.1	.	-11.8	-5.6	-2.2
COc1ccc(S(=O)(=O)NN(C)C(=O)c2nn(-c3ccccc3)ccc2=O)cc1	-0.2%	9.2%	0.0	2.1	-0.9	-2.7	-3.9
Cc1cccc(OCC(=O)N/N=C\c2cn(C)c3ccccc23)c1	4.6%	-1.4%	-10.2	-0.8	-1.0	-2.9	-5.1
CCCCN(C)C(=O)C1CCC(=O)N(c2cc(OC)c(OC)c(OC)c2)C1c1ccc(OC)cc1 (centres undefined)	-1.2%	12.0%	-13.6	-5.1	8.8	-3.1	0.1
O=C(CN1C(=O)S/C(=C\c2cccs2)C1=O)Nc1ccc(O)c(C(=O)O)c1	2.1%	-14.6%	-15.2	8.8	-25.1	-5.6	-14.6
CCOC(=O)N1CCN(S(=O)(=O)c2ccc(F)cc2)CC1	-5.4%[38.3 µM]	11.7%	2.9	5.6	9.1	-0.6	6.8
COc1ccc(CNCc2ccncc2)c(OC)c1	-0.6%	30.1%[activator]	-5.4	-11.7	4.7	4.3	5.8
C/C(=N\NC(=O)CN(c1ccccc1)S(=O)(=O)c1ccccc1[N+](=O)[O-])C(C)(C)C	6.2%	2.5%	-15.0	-4.2	-0.1	-0.2	-9.0
O=C(Nc1cccc(-c2cn3ccccc3n2)c1)c1cc2ccccc2oc1=O	?	-15.7%	-11.6	.	-8.2	1.2	-1.0
COc1cccc(OCC(=O)Nc2ccccc2NC(C)=O)c1	-1.0%	13.3%	-9.7	-0.4	4.7	0.3	-13.1
O=C(NC12CC3CC(CC(C3)C1)C2)c1ccccc1	-2.9%	24.2%	-6.2	-15.4	2.9	-2.6	4.0
